# Assay outcomes as filed in PubChem.
# FEN1 inhibitor: inhibitors of human flap endonuclease 1; P39748; Recombinant FEN1 flap cleavage, fluorescence, 15 min; Potency, µM (titrated, usually from 114 µM), inactives show at the top dose activity change, negative = inhibition, actives largely listed as inhibitors; actives 0.35% (n = 390,000); AID 588795; also: nearly all actives have a fitted effect of over 65% in size
#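 In this screen, 50 nM flap DNA substrate was added to 10 nM FEN1 pretreated with compound for 15 min at room temperature; cleavage was followed with reads at 0 and 15 min, and Hill fitting gave concentration–response parameters.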
# KAT2A inh: GCN5L2 (KAT2A) acetyltransferase inhibition | Q92830 | GCN5L2 HAT assay, ThioGlo1 CoA-SH fluorescence | Potency, µM (highest dose often 58.9 µM), without a hit: top-dose activity change, negative = inhibition, most hits filed as inhibitors | actives 0.21% (n = 390,000) | AID 504327
# Target sequence (Q92830 whole entry, looked up): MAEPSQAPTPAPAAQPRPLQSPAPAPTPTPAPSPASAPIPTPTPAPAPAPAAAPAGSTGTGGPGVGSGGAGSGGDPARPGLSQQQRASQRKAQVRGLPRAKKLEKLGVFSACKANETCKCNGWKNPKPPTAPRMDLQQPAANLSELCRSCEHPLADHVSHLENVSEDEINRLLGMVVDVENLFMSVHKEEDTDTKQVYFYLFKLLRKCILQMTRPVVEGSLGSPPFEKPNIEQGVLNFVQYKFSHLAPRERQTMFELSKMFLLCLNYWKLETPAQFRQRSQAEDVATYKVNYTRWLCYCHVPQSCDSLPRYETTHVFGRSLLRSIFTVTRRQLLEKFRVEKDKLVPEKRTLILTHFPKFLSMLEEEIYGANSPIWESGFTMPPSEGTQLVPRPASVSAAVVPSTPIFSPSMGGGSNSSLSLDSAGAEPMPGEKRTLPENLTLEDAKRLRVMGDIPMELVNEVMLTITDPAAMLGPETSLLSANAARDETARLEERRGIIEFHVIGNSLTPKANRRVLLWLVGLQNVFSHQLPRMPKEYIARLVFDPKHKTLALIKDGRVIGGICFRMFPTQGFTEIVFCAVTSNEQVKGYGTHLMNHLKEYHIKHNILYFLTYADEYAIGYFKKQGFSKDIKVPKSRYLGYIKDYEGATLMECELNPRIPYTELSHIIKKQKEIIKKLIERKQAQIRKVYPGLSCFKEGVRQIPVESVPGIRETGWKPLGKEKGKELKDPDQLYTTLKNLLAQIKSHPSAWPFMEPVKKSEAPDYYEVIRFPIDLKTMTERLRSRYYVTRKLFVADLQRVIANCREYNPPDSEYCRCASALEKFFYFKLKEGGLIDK
#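 Fluorescence readout, Ex340nm/Em540nm: ThioGlo1 (50uM final) reacts with free CoA thiol released as 20nM GCN5L2 acetylates H3(1-25) peptide (75uM) using acetyl-CoA (70uM). Compound and enzyme sat 15 min beforehand; 20 min room-temperature reaction.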
# The depositor's hits bear a star; u = inconclusive; x = no result given; & = joins results of further samples. Calls follow the shape of the dose curve; as a rule, active = well fitted curve in the direction sought with a large enough effect; inconclusive = small, poorly fitted or top-dose-only effect, or another doubt; inactive = no such curve, though single readings can be large; an effect the other way counts as inactive or inconclusive. % is scaled to controls: 0 for no effect and ±100 for the full control effect; potency is read from the fitted curve at half-maximal effect. The list is partial, and most or all hits are left out here.
# Every second line gives: FEN1 inhibitor | KAT2A inh
[1] CC(Cc1ccc(OCC(=O)O)cc1)NCC(O)c1cccc(Cl)c1 (stereo unspecified)
→ x | -7.6%&20.3%
[2] C[C@]12CCC(=O)C=C1CCC1C2CC[C@@]2(C)C1CC[C@]2(C)O (stereo partly specified)
→ -4.4% | -3.5%
[3] CCCOP(=O)(OCCC)C(NC(=O)c1ccccc1)=C(Cl)Cl
→ 5.6% | 3.5%
[4] O=C1C(c2ccccc2)=C(N2CC2)c2ccccc21
→ -14.1% | -6.1%
[5] COc1cc(C)cc(CN2CC=C(c3ccccc3)CC2)c1O
→ -19.1% | -1.8%
[6] CN1C(=O)CN=C(c2ccccc2)c2cc(Cl)ccc21
→ x | 0.7%
[7] O=C1/C(=C\c2cc3c(cc2Cl)OCO3)N2CCC1CC2
→ -5.7% | -3.0%
[8] O=C1CC(=O)N(c2ccc(Cl)cc2Cl)C(=O)N1
→ -14.2% | -3.1%
[9] O/N=C/c1c[nH]c2ccccc12
→ 0.3% | 1.0%
[10] N#CC(c1cccnc1)N1CCOCC1 (stereo unspecified)
→ -4.2% | 11.9%
[11] COC(=O)C(C)Oc1cc(C)cc2oc(=O)c3c(c12)CCC3 (stereo unspecified)
→ 7.3% | -16.8%
[12] O=C1/C(=C/c2cc3c(cc2Cl)OCO3)N2CCC1CC2
→ x | -2.9%
[13] c1cncc(C2CCCCN2)c1 (stereo unspecified)
→ 21.5% | -9.1%&-7.4%
[14] CSc1nnc([C@@H](N)Cc2ccccc2)o1
→ -8.5% | -1.4%
[15] Nc1cc(Cl)cc(C(=O)O)c1Cl
→ 18.0% | -24.0%
[16] COc1ccc(-n2c(O)c(C(C)=NCCc3c[nH]c4ccccc34)c(=O)[nH]c2=O)cc1
→ -16.6% | u
[17] COc1ccc(C2NCc3ccc4c(c3-n3cccc32)OCO4)cc1OC (stereo unspecified)
→ 3.9% | -1.7%
[18] CC(CO)(CO)N=Cc1c(O)n(-c2cccc3ccccc23)c(=O)[nH]c1=O
→ 7.5% | -3.9%
[19] Cn1ncc(Cl)c1C(=O)N1CCC2(CC1)OCCO2
→ -15.4% | -2.1%
[20] C[N+]1([O-])CCC[C@@H]1c1cccnc1 (stereo partly specified)
→ x | 1.2%

# 3 compounds already listed, ordered by count of non-hydrogen atoms, rising:
# Every second line gives: FEN1 inhibitor | KAT2A inh
[20] C[N+]1([O-])CCC[C@@H]1c1cccnc1 (stereo partly specified)
→ x | 1.2%
[10] N#CC(c1cccnc1)N1CCOCC1 (stereo unspecified)
→ -4.2% | 11.9%
[11] COC(=O)C(C)Oc1cc(C)cc2oc(=O)c3c(c12)CCC3 (stereo unspecified)
→ 7.3% | -16.8%

# The list continues.
# Every second line gives: FEN1 inhibitor | KAT2A inh
[21] O=c1ccc2cc(O[C@@H]3O[C@@H](CO)[C@H](O)[C@@H](O)[C@@H]3O)c(O)cc2o1
→ -12.2% | 22.4µM*
[22] c1ccc(P(c2ccccn2)c2ccccn2)cc1
→ -4.1% | -3.9%
[23] S=C1NC2(CCCCC2)NC12CCCCC2
→ 8.0% | 2.2%
[24] CCOP(=O)(OCC)C(O)c1ccc(N(C)C)cc1 (stereo unspecified)
→ 12.1% | -2.9%
[25] CN1CCN(S(=O)(=O)c2cnc(Cl)c(Br)c2)CC1
→ 5.8% | -8.9%
[26] CC1(C)CC(n2[nH]c(=O)c3c2NC(=O)CSC3c2ccc(F)cc2)CCO1 (stereo unspecified)
→ -1.7% | 1.9%
[27] Clc1ccc(N2CC3CCC(C2)N3)nn1
→ u | -3.4%
[28] CC(=O)c1ccc(OC(NC(=O)Cc2ccccc2)C(Cl)(Cl)Cl)cc1 (stereo unspecified)
→ -1.8% | 1.3%
[29] CNC(=S)N1CCN(CCN=Cc2c(O)n(-c3ccc(C)cc3)c(=S)[nH]c2=O)CC1
→ 6.6% | -13.7%
[30] CC[C@H]1CN2CCC1C[C@@H]2[C@H](O)c1ccnc2ccc(OC)cc12 (stereo partly specified)
→ 13.2% | x
[31] O=c1cccc2n1CC1CC2CN(S(=O)(=O)c2ccccc2)C1 (stereo unspecified)
→ 6.3% | -13.0%
[32] CN1CC[C@@]23CCCC[C@@H]2[C@@H]1Cc1ccc(O)cc13
→ 3.7% | -4.0%
[33] CC(C)C(C)(NC(=O)c1cccn(Cc2ccc3c(c2)OC(F)(F)O3)c1=O)C(N)=O (stereo unspecified)
→ 12.1% | -17.5%
[34] COC(=O)C(O)(c1ccc(N(C)C(=O)c2cccs2)cc1)C(F)(F)F (stereo unspecified)
→ 6.8% | -2.5%
[35] O=C(c1cccc(C(F)(F)F)c1)C1CCCN(Cc2ncc[nH]2)C1 (stereo unspecified)
→ -16.3% | 0.159µM*
[36] CN1C(=O)CC(c2ccccc2)Nc2ccccc21 (stereo unspecified)
→ 3.0% | -6.5%
[37] O=c1ccc2cc(OC3O[C@H](CO)[C@@H](O)[C@H](O)[C@H]3O)c(O)cc2o1 (stereo partly specified)
→ 13.2% | u
[38] COc1ccc(-n2c(O)c(C=NCCN(C)C)c(=O)[nH]c2=O)cc1
→ 12.9% | 1.1%
[39] COc1ccc(-n2c(O)c(C(C)=NCC3CCCO3)c(=O)[nH]c2=O)cc1 (stereo unspecified)
→ -6.4% | -6.1%

# 17 entries from above, screen by screen:
1) CC(Cc1ccc(OCC(=O)O)cc1)NCC(O)c1cccc(Cl)c1 (stereo unspecified)
2) C[C@]12CCC(=O)C=C1CCC1C2CC[C@@]2(C)C1CC[C@]2(C)O (stereo partly specified)
3) CCCOP(=O)(OCCC)C(NC(=O)c1ccccc1)=C(Cl)Cl
4) O=C1C(c2ccccc2)=C(N2CC2)c2ccccc21
5) COc1cc(C)cc(CN2CC=C(c3ccccc3)CC2)c1O
6) CN1C(=O)CN=C(c2ccccc2)c2cc(Cl)ccc21
7) O=C1/C(=C\c2cc3c(cc2Cl)OCO3)N2CCC1CC2
8) O=C1CC(=O)N(c2ccc(Cl)cc2Cl)C(=O)N1
9) O/N=C/c1c[nH]c2ccccc12
10) N#CC(c1cccnc1)N1CCOCC1 (stereo unspecified)
11) COC(=O)C(C)Oc1cc(C)cc2oc(=O)c3c(c12)CCC3 (stereo unspecified)
12) O=C1/C(=C/c2cc3c(cc2Cl)OCO3)N2CCC1CC2

Compound | 1 | 2 | 3 | 4 | 5 | 6 | 7 | 8 | 9 | 10 | 11 | 12
FEN1 inhibitor | x | -4.4% | 5.6% | -14.1% | -19.1% | x | -5.7% | -14.2% | 0.3% | -4.2% | 7.3% | x
KAT2A inh | -7.6%&20.3% | -3.5% | 3.5% | -6.1% | -1.8% | 0.7% | -3.0% | -3.1% | 1.0% | 11.9% | -16.8% | -2.9%

13) c1cncc(C2CCCCN2)c1 (stereo unspecified)
14) CSc1nnc([C@@H](N)Cc2ccccc2)o1
15) Nc1cc(Cl)cc(C(=O)O)c1Cl
16) COc1ccc(-n2c(O)c(C(C)=NCCc3c[nH]c4ccccc34)c(=O)[nH]c2=O)cc1
17) COc1ccc(C2NCc3ccc4c(c3-n3cccc32)OCO4)cc1OC (stereo unspecified)

Compound | 13 | 14 | 15 | 16 | 17
FEN1 inhibitor | 21.5% | -8.5% | 18.0% | -16.6% | 3.9%
KAT2A inh | -9.1%&-7.4% | -1.4% | -24.0% | u | -1.7%
